Source: PubChem (ICCB-Longwood Screening Facility, Harvard Medical School)
HCMV NEC inh = disrupts HCMV UL50-UL53 complex binding | HTRF UL50-UL53 interaction, normalized percent inhibition | inhibition, % (concentration not given with the values) | 0.15% of 190,000 active;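 active = both replicates at 50% or more, plus weaker picks with an unusually low signal ratio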;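 note: stock transfer was 100 nL into about 20 µL; 0% = negative control wells and 100% = wells with untagged competitor protein; inactives centre near -12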
GIV-Gai inh = blocks GIV peptide binding to rat Galpha-i3; P08753; Galpha-i3/FITC-GIV peptide fluorescence polarization, 90 min; active compounds read low; scaled: aluminum fluoride 0%, vehicle 100%; percent of control (FP), % (test concentration not listed); 0.42% of 210,000 active;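 active = replicate mean at 85% of control or lower, very high polarization wells dropped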;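 note: lower values mean more displacement of the GIV peptide from Galpha-i3; wells of about 15 µL received 100 nL stock; the first replicate is given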
Target sequence (P08753 whole entry, looked up): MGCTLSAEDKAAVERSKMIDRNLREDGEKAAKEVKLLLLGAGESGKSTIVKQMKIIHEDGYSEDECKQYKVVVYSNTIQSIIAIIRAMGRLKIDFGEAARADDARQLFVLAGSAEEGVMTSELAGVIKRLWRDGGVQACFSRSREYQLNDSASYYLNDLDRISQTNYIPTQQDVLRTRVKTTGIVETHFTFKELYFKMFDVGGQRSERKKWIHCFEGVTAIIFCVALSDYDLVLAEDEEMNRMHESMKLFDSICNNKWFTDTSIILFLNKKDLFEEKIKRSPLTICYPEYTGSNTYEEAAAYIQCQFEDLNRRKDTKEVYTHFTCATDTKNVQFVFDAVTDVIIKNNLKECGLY
Sa growth 42C = S. aureus growth inhibition | S. aureus RN4220 growth, OD600, 20 h, 42 °C; active compounds read low | relative growth, % (concentration not given with the values) | 0.53% of 170,000 active;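 active = growth at 42 °C up to 50% and 20 or more points under that at 30 °C, or under 10% at both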;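 note: 300 nL library stock went into each well; scaled to the means of positive and negative controls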
Sa growth 42C second temp = also measured in Sa growth 42C; calls as there; relative growth, %; measured here: growth at 30 °C;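 optical density after 20 h as mean of two plates; 100% = untreated growth and lower means inhibition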
The depositor's hits bear a star; x = not tested or not shown; & = joins results of further samples.

Each structure is followed by: HCMV NEC inh	GIV-Gai inh	Sa growth 42C	Sa growth 42C second temp
O=C(CCCCCN1C(=O)c2ccccc2C1=O)Nc1ccc2c(c1)OCO2
  -16	109	98	93
COc1ccc(S(=O)Cc2ccc(C(=O)NCCN(C)C)o2)cc1 (stereo not given)
  -55	107	84	84
COc1cc2c(cc1OC)C1=C(C#N)COCN1CC2
  x	98	94	87
Cc1cc(S(=O)(=O)Nc2cc3c(cc2N2CCOCC2)n(C)c(=O)c(=O)n3C)ccc1F
  -35	100&101	88	89
CC(C)CCn1c(=O)c2cccnc2n(Cc2cccc(F)c2)c1=O
  x	98	88	89
CCOC(=O)C1=C(C)N(C)C(c2ccccc2)(C(F)(F)F)NC1=O (stereo not given)
  -2	98	89	100
O=C(Oc1ccc2ccccc2c1)c1ccccc1O
  -10	104	96	90
COC(=O)c1ccc(N)cc1
  -3	x	103	94
Cn1c(Cc2cccs2)nnc1SCC(=O)C12CC3CC(CC(C3)C1)C2
  -28	x	92	86
Cc1cc(C)nc(N2CCOCC2)n1
  -2	x	90	93
O=S(=O)(NC1=NCCCCC1)c1ccc(F)cc1F
  -45	x	96	79
COC(=O)c1ccc(Cl)cc1NC(=O)N1CC2CCCN2c2ccccc21 (stereo not given)
  x	104	94	99
Cc1cc(C)c(C#N)c(SCC(O)CS(=O)Cc2ccccc2)n1 (stereo not given)
  4	x	102	95
O=C(OCC(=O)N(C1CCCCC1)C1CCCCC1)c1ccc(O)cc1
  -8	x	90	86
CCOc1ccc(C2CC(=O)N3CN(CCO)CSC3=C2C#N)cc1 (stereo not given)
  -44	107	62	50
Cc1cc(C)cc(OCCCn2c(-c3ccc(Cl)cc3)nc3ccccc3c2=O)c1
  -9	105	107	90
CCc1cccc(NC(=O)COc2cc(=O)n(C)c3ccccc23)c1
  x	102	80	91
CCC(=O)N1CCc2cc(CNC(=O)c3ccccc3C)ccc21
  x	106	121	92
CCOC(=O)N1CCN(C(=O)CCCCn2c(=S)[nH]c3c([nH]c4ccc(OC)cc43)c2=O)CC1
  -10	112	94	93
CCCNC(=O)c1ccc(Cn2c(SCC(N)=O)nc3ccccc3c2=O)cc1
  x	99	91	85
COc1ccc(-c2noc(CN(C(=O)Nc3cccc(Cl)c3)C3CCCCC3)n2)cc1OC
  x	102	115	100
CCOc1cc(/C=C2\SC(NC(C)=O)=NC2=O)c(Br)cc1OC(C)=O
  -32	106	x	x
O=C(CCCn1ccc2cc(S(=O)(=O)N3CCCC3)ccc21)NCCc1ccccc1
  -32&-1	104&102	97	77
Nc1ncnc(N2CCCc3ccccc32)n1
  -37	107	117	94
CCOC(=O)c1cnc2c(ccc3ccccc32)c1Nc1ccc(OC)c(OC)c1
  -21	103	99	78
O=C(Nc1ccccc1Cl)C1CCCN(c2nc3ccccc3nc2C(F)(F)F)C1 (stereo not given)
  3	107	x	x
O=C(c1ccc(F)cc1)N1CCCN(c2nc(-c3ccccc3)ns2)CC1
  -11	100	100	79
CC1(C)CC(NC(=O)C23CC4CC(CC(C4)C2)C3)CC(C)(C)N1
  16	x	91	103
COc1ccc(C(=O)COC(=O)c2cc(-c3ccccc3)nc3c(C)cccc23)cc1
  -38	107	108	91
CC(=O)N(Cc1cccnc1)c1nc2ccc(F)cc2s1
  x	100	125	73

Structures from the list above containing an aryl methoxy group, in the order listed:
Each structure is followed by: HCMV NEC inh	GIV-Gai inh	Sa growth 42C	Sa growth 42C second temp
COc1ccc(S(=O)Cc2ccc(C(=O)NCCN(C)C)o2)cc1 (stereo not given)
  -55	107	84	84
COc1cc2c(cc1OC)C1=C(C#N)COCN1CC2
  x	98	94	87
CCOC(=O)N1CCN(C(=O)CCCCn2c(=S)[nH]c3c([nH]c4ccc(OC)cc43)c2=O)CC1
  -10	112	94	93
COc1ccc(-c2noc(CN(C(=O)Nc3cccc(Cl)c3)C3CCCCC3)n2)cc1OC
  x	102	115	100
CCOC(=O)c1cnc2c(ccc3ccccc32)c1Nc1ccc(OC)c(OC)c1
  -21	103	99	78
COc1ccc(C(=O)COC(=O)c2cc(-c3ccccc3)nc3c(C)cccc23)cc1
  -38	107	108	91

The listing continues:
Each structure is followed by: HCMV NEC inh	GIV-Gai inh	Sa growth 42C	Sa growth 42C second temp
CCOC(=O)c1cc(C(N)=S)c(=O)[nH]c1O
  -21	144	88	91
O=C1CSC(c2ccc3c(c2)OCO3)N1c1ccc(Br)cc1 (stereo not given)
  3	105	86	94
CCn1c(C)cc(O)cc1=O
  -20	100	102	87
Cc1ccc(Cl)cc1NC(=O)CCC(=O)NCc1ccco1
  -24	104	106	92
Cc1ccccc1Nc1nc(N)nc(CSc2nc3ccccc3c(=O)n2CCCO)n1
  -27	x	122	98
CCCC(=Nc1ccccc1O)C1=C(O)CC(CC(C)SCC)CC1=O (stereo not given)
  -9	99	68	41
N#CC(C#N)=CNc1nccs1
  -26	106	98	91
COc1ccc(NS(=O)(=O)c2cc3c(cc2C)NC(=O)CO3)c(OC)c1
  x	107	105	86
COc1ccc(N2CC(NC(=O)COc3ccccc3)CC2=O)cc1OC (stereo not given)
  x	101	142	90
O=S(=O)(c1ccc(N=Cc2c(O)ccc3ccccc23)cc1)N1CCCCC1
  76*	x	83	82
COc1ccc(-c2noc(-c3cn(Cc4ccc(NC(=O)c5ccc6c(c5)OCO6)cc4)cn3)n2)cc1
  -30	107	x	x
COc1ccc(NC(=O)c2cc(CN3CCCC3)on2)cc1Cl
  x	98	97	85
Cc1cc2c(cc1C)NC(c1ccc(O)cc1O)C1=C(CC(C)(C)CC1=O)N2 (stereo not given)
  -41	100	76	72
O=C(CSCCO)N1CCc2ccccc21
  4	99	96	89
CCN(CC)c1ccc(NC(=O)c2ccccc2F)cc1
  -27	96	96	102
COCCOC(=O)C1=C(C)NC2=C(C(=O)CC(c3ccccc3)C2)C1c1ccc(Br)cc1 (stereo not given)
  -20	107	x	x
C=CCn1c(=O)c2ccc(C(=O)NCc3ccc4c(c3)OCO4)cc2n(CC(=O)NC2CCCCC2)c1=O
  -21	97	x	x
O=c1[nH]c2cc3nc(C(F)(F)C(F)(F)F)[nH]c3cc2[nH]1
  -7	105	106	96
O=C(O)COc1ccc(NS(=O)(=O)c2cccc3nsnc23)cc1
  -96	x	90	93
Cc1noc(C)c1S(=O)(=O)Nc1ccc2c(c1)oc(=O)n2C
  11	103	x	x
CCN(CC)S(=O)(=O)c1ccc(NC(=O)Cn2ncc3c(=O)oc4ccc(C)cc4c32)cc1
  -26	98	88	89
O=C(Nc1ccc2c(c1)nc1n2CCCCC1)c1cc2ccccc2o1
  -11	x	103	74
NC(=O)COc1ncnc2scc(-c3ccccc3)c12
  -4	x	88	95
O=C1C=C(Nc2cccc3ccccc23)CCC1
  -28	x	101	74
Cc1ccc(C(=O)Nc2ccc(F)cc2)cc1S(=O)(=O)N1CCOCC1
  x	100	112	90
c1ccc(Nc2ccc(-c3ccccc3)nn2)cc1
  -2	97	107	94
CN1CCN(C(CNC(=O)NC2CCCCC2)c2ccc(F)cc2)CC1 (stereo not given)
  -22	100	94	89
c1csc(-c2nnc(Sc3nc(CN4CCCCC4)nc4sc5c(c34)CCCC5)o2)c1
  -11	x	126	95
CCN(CC)c1nc(C)nc2sc(C(=O)O)c(C)c12
  -26	110	x	x
O=C(CSc1nccn1Cc1ccc(Cl)cc1)Nc1nc2ccccc2s1
  x	103	104	95
NC(C(=O)O)C(c1ccccc1)C(F)(F)F (stereo not given)
  12	x	120	96
Cc1nc2ccc(S(=O)(=O)CCC(=O)Nc3ccccc3C)cc2s1
  x	105	84	90
CC(C)c1nc2ccc(C(=O)NCc3ccc(F)cc3)cc2o1
  x	100	85	91
COc1ccc(Nc2ncc(C(=O)Nc3cccc(OC)c3)c3ccccc23)cc1
  1	102	115	89
Nc1c2c(nn1-c1ccccc1)CC(=O)NC2=O
  71*	60*	100	73
COC1OC(OC)C2C3CCC(CC3O)C12 (stereo not given)
  1	112	92	102
Cc1cc(C(=O)OCC(N)=O)c(C)n1-c1ccccc1
  -5	x	82	97
COc1ccc2c(c1)cc1c(=O)n(CC(=O)NC3CC3)nc(C)n12
  -33	99	118	86
Cc1ccc(-n2c(=O)c3c4c(sc3n(Cc3cc(=O)n5cc(Cl)ccc5n3)c2=O)CCC4)cc1C
  20	100	90	101
Cc1c(C(=O)N2CCC(C(=O)N3CCCCC3)CC2)oc2cc3sc(N(C)C)nc3cc12
  x	106	98	89
CC(C)(C)NC(=O)Nc1ccc2ccccc2c1
  -12	107	87	64
N#CC1=C(N)SC(c2cccs2)C(C#N)=C1N (stereo not given)
  -29	x	27	15
COc1ccc(-n2ccn(CC(=O)NCCc3ccccc3)c(=O)c2=O)cc1OC
  -33	102	116	93
CCCCC(=O)N1CC(=O)Nc2ccc(Br)cc2C1c1ccccc1 (stereo not given)
  -2	93	x	x
CCOc1ccc(CCNC(=O)c2cc(Nc3ccc(C)cc3C)nc3ccccc23)cc1OCC
  17	101	97	102
Cc1cccc(C(=O)NCCc2nc(-c3ccccc3)no2)c1
  -5	107	x	x
CCNc1ccc(C(=O)OCC)cc1NC(=O)c1cccc(N(C)C)c1
  -7	x	76	98
CCOC(=O)C1CCN(c2nc3ccccc3n2Cc2cc(C)ccc2C)CC1
  -19	102	x	x
CCOC(=O)c1c(-c2ccc(C)cc2)csc1NC(=O)c1cc(=O)c2cc(C)ccc2o1
  -12	108	96	81
O=C(Nc1ccc2c(c1)CCC2)Nc1ccc2[nH]c(=O)oc2c1
  -5	103	x	x
CCOc1ccc(/C=C2\SC(=S)N(CCC(=O)Nc3cc(C)on3)C2=O)cc1
  -3	107	x	x
CC12CC3CC(C)(C1)CC(C(=O)NO)(C3)C2
  -3	103	105	97
Cc1[nH]c(-c2ccc(F)cc2)cc1C(=O)N1CCC(Cc2ccccc2)CC1
  -15	109	x	x
COc1ccc(Cn2c(C)c(CNCc3cccs3)c(C(=O)O)c2C)cc1
  -9	108	112	100
Cc1nnc(SCC(=O)c2ccc3[nH]c(=O)oc3c2)n1Cc1ccccc1
  -20	x	71	36
CC(C)(C)N=C1NN=C(c2ccc(Cl)c(Cl)c2)CS1
  -20	x	64	71
COc1ccc(NC(=S)NCCCC2C=NNC2=O)cc1 (stereo not given)
  -24	97	92	91
Cc1ccc2nsnc2c1S(=O)(=O)N1CCCC1C(=O)O (stereo not given)
  -97	100	x	x
Nc1no[n+]([O-])c1-c1ccccc1
  -23&-15	x	100&87	92&98
CC1SC(=S)N(c2ccc(N(C)C)cc2)C1=O (stereo not given)
  x	104	99	79

(listing goes on)
Each structure is followed by: HCMV NEC inh	GIV-Gai inh	Sa growth 42C	Sa growth 42C second temp
CC(C)Cn1c(=S)[nH]c2sc3c(c2c1=O)CC(C)(C)OC3
  -16	108	x	x
COc1ccc(C2OCC(C)(C(=O)O)CO2)cc1 (stereo not given)
  -16	x	83	85
Cc1ccc(NC(=O)C2CCN(S(=O)(=O)c3ccc4[nH]c5c(c4c3)CCCCC5)CC2)cc1
  x	101	104	87
CN1C/C(=N\S(=O)(=O)c2ccccc2)N(C)C1=O
  -13	102	88	81
COc1cccc(NC(=O)/C(C#N)=C\c2cn(Cc3ccc(C)cc3)c3ccccc23)c1
  12	109	110	97
CCOc1ccc(-n2ccnc2SCC(=O)Nc2ccc3c(c2)OCO3)cc1
  x	100	93	91
CCOC(=O)CSc1nnc(Cc2cc(=O)[nH]c(=O)[nH]2)n1-c1cc(C)ccc1C
  -2	101	111	89
CC12CCC(C/C1=N\OC(=O)O)C2(C)C (stereo not given)
  5	104	100	97
O=C(c1cccs1)N1CCN(c2ccc(Cl)cc2)CC1
  -3	102	97	75
O=C(Oc1ccc(O)cc1)C12CC3CC(CC(C3)C1)C2
  4	105	107	94
O=S(=O)(NC1CCCCC1)c1ccc(Cl)s1
  x	105	101	84
Cc1ccc(C(=O)NC2(O)C(=O)c3ccccc3C2=O)cn1
  54*	94	106	80
CCS(=O)(=O)N1CCc2cc(C(=O)CSc3nnc(COc4ccc(F)cc4)o3)ccc21
  -24	x	87	92
Cc1ccc(C2C(=O)N(C3CCCCCC3)CC(=O)N2C(C)C)cc1 (stereo not given)
  x	100	111	83
c1ccc(Cn2nnc3c(N4CCCC4)ncnc32)cc1
  -11	102	101	77
COc1ccc(N2CCN(C(=O)CNC(C)C3CC4CCC3C4)CC2)cc1 (stereo not given)
  25	x	118	89
Cc1ccc(CNC(=O)CCCn2c(=O)c3ccccc3n(CC(=O)N3CC(C)CC(C)C3)c2=O)cc1 (stereo not given)
  -2	104	95	85
COc1ccc(C2CC(c3ccc(Br)cc3)=NN2C(=O)CCCC(=O)O)cc1OC (stereo not given)
  -40	100	x	x
CCOC(=O)CN1C(=O)S/C(=C/c2cc(OC)c(O)cc2Br)C1=O
  -28	137	112	80
Cc1cc(C)nc(NNc2ccccc2)n1
  -30	x	80	83
COc1ccc(Cl)cc1NC(=O)Cn1ccn(-c2cc(C)cc(C)c2)c(=O)c1=O
  -28	99	64	72
CCOC(=O)c1cccc(NC(=O)CS(=O)(=O)Cc2nc(-c3ccc(C)cc3)oc2C)c1
  -9	104	106	88
CC(C)(C)c1ccc(C(=O)Nc2ccccc2C(=O)OCc2cc(=O)n3ccsc3n2)cc1
  x	104	100	95
